B2AR ag: agonists of human beta-2 adrenergic receptor inducing internalization. response, % (concentration not given with the values). AID 504454. P07550. Am2.2-beta2AR cells, FAP receptor internalization, flow cytometry; reference of the scale not given here. 340,000 compounds, 0.43% hits;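 active means response above a set limit, near 3 SD of response in nonfluorescent compounds, cut at about 42% in these data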;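 further: stock transfer was 100 nL into about 11 µL; a reference agonist was the positive control; negative values mostly stem from fluorescent compounds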
Target sequence (P07550 whole entry, looked up): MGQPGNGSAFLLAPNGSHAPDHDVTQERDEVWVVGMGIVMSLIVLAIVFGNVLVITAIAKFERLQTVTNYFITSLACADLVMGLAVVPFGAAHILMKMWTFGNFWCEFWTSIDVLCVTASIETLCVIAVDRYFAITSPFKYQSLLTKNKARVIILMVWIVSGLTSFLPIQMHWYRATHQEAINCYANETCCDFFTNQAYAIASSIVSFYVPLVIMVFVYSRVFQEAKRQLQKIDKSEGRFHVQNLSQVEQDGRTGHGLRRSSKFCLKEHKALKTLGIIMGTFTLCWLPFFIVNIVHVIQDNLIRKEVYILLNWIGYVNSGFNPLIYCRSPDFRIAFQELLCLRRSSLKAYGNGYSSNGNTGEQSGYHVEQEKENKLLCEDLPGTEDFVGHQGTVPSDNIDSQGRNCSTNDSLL
ALR H2O2 inh: inhibitors of human sulfhydryl oxidase ALR; P55789; 290,000 compounds, 3.8% hits; inhibition, % (no concentration beside the values); purified ALR, DTT oxidation, H2O2 HRP-luminol luminescence;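 active means mean and each replicate at 75% or more; inconclusive means only one of the two met; inactive means neither met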;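 further: stock transfer was 7.5 nL into about 7.5 µL; 0% = neutral wells and 100% = wells with inactivated enzyme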
Target sequence (P55789 whole entry, looked up): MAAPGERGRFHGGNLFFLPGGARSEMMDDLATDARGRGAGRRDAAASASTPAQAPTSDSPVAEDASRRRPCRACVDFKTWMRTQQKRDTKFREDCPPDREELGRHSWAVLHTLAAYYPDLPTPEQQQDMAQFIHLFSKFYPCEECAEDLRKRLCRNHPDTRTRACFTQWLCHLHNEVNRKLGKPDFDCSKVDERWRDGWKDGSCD
HNF4A DNA FP: change in binding of human HNF4 alpha to DNA | P41235 | activity change, % at 10 µM | AID 1224865 | 360,000 compounds, 0.3% hits | HNF4a-FITC DNA binding, fluorescence polarization, 1 h; in the data active means activity change above about 30%, passing the limit was not always enough;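 further: controls were the assay level and a saturating level of protein; the project sought stronger binding though the title names inhibitors; some compounds called inactive have numbers as strong as hits; positive values seem to mean higher polarization but the record does not say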
Target sequence (P41235 whole entry, looked up): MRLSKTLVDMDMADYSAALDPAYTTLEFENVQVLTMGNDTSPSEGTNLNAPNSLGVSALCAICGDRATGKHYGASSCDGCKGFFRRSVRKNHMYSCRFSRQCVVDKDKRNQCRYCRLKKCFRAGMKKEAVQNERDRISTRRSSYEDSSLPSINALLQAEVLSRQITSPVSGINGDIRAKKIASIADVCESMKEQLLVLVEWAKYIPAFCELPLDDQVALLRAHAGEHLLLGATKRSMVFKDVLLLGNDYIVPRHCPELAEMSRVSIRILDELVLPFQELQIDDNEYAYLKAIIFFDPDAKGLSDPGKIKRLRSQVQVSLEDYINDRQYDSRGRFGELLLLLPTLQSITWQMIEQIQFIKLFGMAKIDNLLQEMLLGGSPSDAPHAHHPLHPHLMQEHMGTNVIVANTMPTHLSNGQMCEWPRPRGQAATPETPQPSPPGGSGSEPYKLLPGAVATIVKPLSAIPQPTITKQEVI
RanGTP-Imp inh: inhibitors of RanGTP-importin-beta interaction, primary screen, biochemical, FRET, CFP-Ran, YFP-importin-beta, homogeneous; cell-free CFP-Ran/YFP-importin-beta FRET ratio; inhibition, % (test concentration not listed); 300,000 compounds, 1.1% hits; AID 2216;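 active means most replicates above 15%; inconclusive means exactly half above 15%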;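 further: 0% = DMSO wells and 100% = Ran loaded with GDP instead of GTP; wells of about 40 µL received 100 nL stock; the first replicate is given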
Calb FLC: C. albicans growth modulation with fluconazole. C. albicans CaCi-2 (fluconazole-resistant clinical isolate) + fluconazole, Alamar Blue growth, 48 h. growth inhibition, % (concentration not given with the values). 300,000 compounds, 0.57% hits. AID 1979;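 active means most replicates above 75%; inconclusive means exactly half above 75%; inactive means most below 75%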;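 further: all wells also contain fluconazole at 8 µg/ml as a sub-toxic cotreatment; 0% = median of DMSO wells and 100% = median of geldanamycin control wells; wells of about 8 µL received 7.5 nL stock; the first replicate is given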
LANA-H2A inh: blocks KSHV LANA binding to histone H2A/H2B; Q9QR71; cell-free LANA-H2A/H2B peptide, fluorescence polarization; inhibition, % (test concentration not listed); 320,000 compounds, 0.6% hits; in the data active means inhibition mostly above about 10%, no sharp cut-off; inactive means mostly below about 6.7%;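 further: stock transfer was 7.5 nL into about 10 µL; 0% = median of vehicle wells and 100% = median of positive control wells; one replicate is shown; the record names a cut of 25% in any replicate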
Vif A3G: inhibitors of Vif binding to APOBEC3G peptide, primary screen, biochemical, TR-FRET, GST-Vif 1-94, biotin-A3G peptide, dose response retest (AID 1117319); TR-FRET GST-Vif / biotin-A3G peptide binding; higher % means a stronger effect; test concentration not given here; strong numbers were not always called active; inhibition, %; hits with a dose series show IC50 in µM; 260,000 compounds, 0.57% hits;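 active means above the screen mean plus three standard deviations and confirmed in dose response; inconclusive means results disagree or hit not tested in dose response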;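 further: Vif residues 1-94 fused to GST binding biotinylated APOBEC3G peptide 110-148; 0% = full assay without inhibitor and 100% = GST in place of GST-Vif; retest series ran down from 100 µM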
Starred values were filed as active, the others as inactive; ? = inconclusive; / = no result given.

Order of values: B2AR ag	ALR H2O2 inh	HNF4A DNA FP	RanGTP-Imp inh	Calb FLC	LANA-H2A inh	Vif A3G
Oc1ccc(N=Cc2sc3ccccc3c2Cl)cc1
    10	?	1.7	5.5	46	-4.4	3.1µM*
Cc1ccc(Oc2nccc(-c3ccc(Cl)cc3)n2)cc1
    2	-4	-10	-4.7	1	-4.1	-3%
COc1ccc(N2CCN(c3ncccc3C#N)CC2)cc1
    2	97*	-3.7	2.7	13	1.6	/
COc1cccc(C=Nc2ccc(C)c(F)c2)c1O
    -2	-9	2.8	-1.6	5	0.3	/
Cc1ccc([N+](=O)[O-])cc1S(=O)(=O)N1CCNCC1
    -6	-9	-5.7	-3.9	-3	12	14%
Cc1csc2c(C#N)c(=O)c3c(n12)CCC3
    -4	4	-0.1	-2.9	-5	-1.4	4%
O=C(Cn1cnc2c(nnn2Cc2ccc(F)cc2)c1=O)N1CCN(c2ccccc2)CC1
    3	21	-0.3	/	-14	-8.0	2%
CC1(C)CC2(CCO1)C(Nc1ccccc1)=NC(=S)N2c1ccccc1 (stereo not given)
    /	0	/	-4.6	9	5.7	6%
O=C(Cn1ccc2ccccc2c1=O)NCCC(=O)N1CCN(c2cccc(Cl)c2)CC1
    0	8	-0.6	-1.2	0	-4.1	-1%
CCOC(=O)c1sc2cc([N+](=O)[O-])cc(SCC(=O)OC)c2c1N
    0	-100	14	-7.8	17	-3.1	5%
Nc1ccccc1Nc1nc2ccccc2[nH]1
    1	99*	1.8	0.7	22	0.0	?
CCc1ccc(OCC(=O)NNC(=S)NC(=O)C2CC2)c(Br)c1
    -10	12	-0.7	/	107*	-2.4	-5%
COc1ccc2c(c1[N+](=O)[O-])CCC/C2=N/OC(=O)c1cccc2ccccc12
    7	-22	-1.3	3.9	4	-1.5	1%
CCCC(=O)N(CCN1CCOCC1)c1nc2ccc(OCC)cc2s1
    -4	/	-2.2	3.7	13	0.8	/
Cc1ccc(S(=O)(=O)N(C)C)cc1NC(=O)/C=C/c1cccs1
    -9	-3	3.9	-1.5	11	4.2	4%
CCN(CC(=O)Nc1ccc(OC)cc1)C(=O)c1ccc(N2CCCC2=O)cc1
    -14	/	-2.1	/	/	3.4	-9%
COc1ccc(-n2nc(C)c3sc(C)nc3c2=O)cc1
    -9	/	0.6	-0.3	7	4.5	0%
CC(=O)NC(Cc1ccccc1)C(=O)NC1CCN(c2ncccc2[N+](=O)[O-])CC1 (stereo not given)
    -6	-3	3.8	-0.8	2	-2.2	/
Cc1cc(C(=O)Cn2nc(C(=O)O)c3ccccc3c2=O)c(C)n1CCc1ccc(F)cc1
    -3	-1	-4.0	-4.7	-9	-0.8	-1%
COc1ccc(Cl)c2sc(NC(=O)C3=COCCO3)nc12
    -6	/	4.9	-1.1	16	/	-8%
CC1(C)CC(=O)C(C2C3=C(CC(C)(C)CC3=O)Oc3c(Br)cc(Br)cc32)=C(O)C1 (stereo not given)
    16	5	-1.4	-1.3	9	-3.1	/
CC1CCN(CC(=O)NNC(=O)c2cccc(Br)c2)CC1
    2	-5	-0.6	-1.6	-6	1.0	/
O=C(Nc1cccnc1)c1ccc(Br)s1
    -5	-2	0.8	0.1	9	2.9	3%
COc1ccc(CNn2c(-c3cccc(C)c3)nc3ccccc3c2=O)cc1OC
    -12	-13	3.3	-1.2	7	-0.3	1%
COc1ccccc1-c1nc(SCc2ccccn2)n[nH]1
    -5	-10	-0.5	-15	-5	-1.2	/
COc1ccc(/C=N/NC(=O)Cn2nc(C)c([N+](=O)[O-])c2C)cc1
    -2	-8	-0.8	-2.2	4	-2.1	/
Cc1nc(SCC2(C)CC2(Cl)Cl)n[nH]1 (stereo not given)
    -7	-4	-2.9	2.5	8	1.1	2%
CNC(=S)N/N=C(\C)c1ccc(Cl)c(Cl)c1
    1	15	1.0	3.6	-48	-2.9	5%
CCc1nnc(NC(=O)CSc2nnc(-c3cccnc3)n2CCc2ccccc2)s1
    2	-2	-3.9	2.7	6	2.5	1%
O=C(O)c1nn(-c2ccccc2)nc1-c1nn(-c2ccccc2)nc1C(=O)O
    -2	2	0.5	6.0	15	1.2	7%

Vif A3G: hit marks shown above.
| smiles | B2AR ag | ALR H2O2 inh | HNF4A DNA FP | RanGTP-Imp inh | LANA-H2A inh | Vif A3G |
| --- | --- | --- | --- | --- | --- | --- |
| Oc1ccc(N=Cc2sc3ccccc3c2Cl)cc1 | 10 | ? | 1.7 | 5.5 | -4.4 | 3.1µM* |

Additional results:
Order of values: B2AR ag	ALR H2O2 inh	HNF4A DNA FP	RanGTP-Imp inh	Calb FLC	LANA-H2A inh	Vif A3G
CCc1cccc(CC)c1NC(=S)N1CCn2cccc2C1c1ccncc1 (stereo not given)
    -7	-1	0.7	-0.1	2	-0.4	4%
Cc1ccccc1C(=O)N1CCC(C(=O)Nc2ccccn2)CC1
    -5	/	2.6	3.3	-4	/	/
Cc1ccc(C2C3=C(CCCC3=O)OC3=C2C(=O)CCC3)cc1
    10	0	1.3	-1.2	3	6.5	/
COc1ccc(-c2cc3c(=O)n(CC(=O)Nc4cccc(Cl)c4)nc(C)n3n2)cc1
    -3	-16	7.2	6.5	-7	4.4	/
O=C(CCNS(=O)(=O)c1cccs1)NCc1cccs1
    6	-5	-1.9	2.5	5	0.9	?
CCOC(=O)C1=C(C)OC(N)=C(C#N)C1c1cc(SCC)oc1C (stereo not given)
    -2	14	2.4	-1.9	?	3.4	2%
NC(=S)N=Nc1c(O)n(CCCl)c2ccc(Br)cc12
    -11	-5	-2.7	-2.1	-5	1.8	-5%
Cc1ccc(CNS(=O)(=O)CCNC(=O)c2ccccc2)cc1
    -6	0	-1.0	-2.1	-3	4.1	3%
CC(C)CC(O)C1CCN(C(=O)CCc2nnc(-c3ccccc3)o2)CC1 (stereo not given)
    1	0	5.7	0.5	5	-0.9	0%
C[C@H](CO)N1C[C@H](C)[C@@H](CN(C)C(=O)Nc2ccc(C(F)(F)F)cc2)Oc2c(NC(=O)c3ccncc3)cccc2C1=O
    0	/	-0.8	/	/	-0.5	0%
COc1ccc(NC(=O)CN(C)C2CCS(=O)(=O)C2)cc1 (stereo not given)
    -8	-2	-0.3	/	/	-2.0	2%
Cc1ccccc1NC(=O)Cn1c(=O)sc2ccccc21
    1	-15	-3.2	-0.2	9	-0.7	27%
CC(CCCN1CCCC1)Nc1ccnc2cc(Cl)ccc12 (stereo not given)
    1	/	5.4	/	/	/	-7%
O=C(O)c1cc(-c2c[nH]c3ccccc23)nc2ccc3ccccc3c12
    0	92*	5.4	-1.2	?	9.8	2%
CSCCC(NC(=O)c1cccc(C)c1)C(=O)NCc1cccs1 (stereo not given)
    10	-5	-2.8	/	/	2.2	/
CCN(CCCNC(=O)CNC(=O)Cn1cnc2ccccc2c1=O)c1cccc(C)c1
    0	/	1.5	8.9	16	-2.2	18%
Cc1ccc(CNS(=O)(=O)c2ccc3c(c2)N(C)CCO3)cc1
    -5	-5	-0.2	0.2	-4	-1.2	30%
CCN(CC)CCNCc1cc(Cl)ccc1OCc1ccccc1F
    -2	0	1.1	2.9	3	2.0	/
Cc1cc(NC(=O)COc2coc(CN3CCN(c4ccc(F)cc4)CC3)cc2=O)no1
    -10	32	-3.2	-1.4	-1	1.7	/
O=C(OCN1C(=O)c2ccccc2C1=O)C1CCCCC1
    -2	-2	-2.7	3.6	0	-2.0	7%
Cn1c(SCC(=O)N2c3ccccc3CCc3ccccc32)nnc1-c1ccc(O)cc1
    -2	0	1.2	-0.2	19	-2.9	0%
CCOc1ccccc1C1C(C(=O)OC)=C(N)OC2=C1C(=O)CCC2 (stereo not given)
    4	-15	0.4	0.5	-1	5.0	8%
c1ccc(CN2CCC(N=C3NN=C(c4ccc5c(c4)OCCO5)CS3)CC2)cc1
    10	/	4.8	-2.8	-26	-22	-13%
CCOC(=O)c1c(-c2ccc(Cl)cc2)c(C#N)c(=O)n(N)c1N
    -7	14	2.5	-0.5	22	-2.8	-6%
O=C(COC(=O)c1cc([N+](=O)[O-])ccc1N1CCOCC1)Nc1c(Cl)cccc1C(F)(F)F
    -7	26	0.2	-0.1	0	-2.3	/
CCSc1nc(C)c(CCOc2cccc(C)c2)c(=O)[nH]1
    1	1	-0.5	-6.8	-1	-2.9	-2%
CC(NC(=O)CSc1nc2ccccc2n1CCC#N)c1ccc(F)cc1 (stereo not given)
    -13	-14	-2.4	2.4	-7	-3.5	-2%
COc1cc(N(C)C)c(NC(C)=O)cc1C(=O)O
    0	-4	6.6	1.8	-7	-3.8	2%
COc1ccccc1NS(=O)(=O)c1ccc2oc(SCC(C)=O)nc2c1
    -3	5	3.2	?	-7	1.1	/
CCn1c(SCC(=O)Nc2cc(OC)c(OC)c(OC)c2)nnc1-c1cccs1
    1	0	0.5	-3.6	1	-3.0	3%
COc1ccc([N+](=O)[O-])cc1COc1ccc2c(-c3ccccc3)cc(=O)oc2c1
    2	2	0.3	1.6	-5	1.7	-4%
CC(SC(C)C(=O)NN=Cc1c[nH]c2ccccc12)C(=O)NN=Cc1c[nH]c2ccccc12 (stereo not given)
    -2	/	1.7	/	/	/	-2%
Cn1c(N)c(C(=O)COC(=O)/C=C/c2ccc(S(=O)(=O)N3CCOCC3)cc2)c(=O)n(C)c1=O
    12	2	0.4	?	14	2.2	/
COc1ccc(NC(=O)CSc2nc(=O)n(CCN(C)C)c3c2CCCC3)cc1OC
    0	6	-0.2	5.0	5	0.4	-8%
Cc1ccc(C2C(C(=O)O)c3ccccc3C(=O)N2C)c(C)c1 (stereo not given)
    14	-3	2.3	0.3	-9	-1.2	-2%
O=C(CSc1ncnc2nc[nH]c12)Nc1nnc(SCc2ccc(Cl)c(Cl)c2)s1
    -5	-4	5.0	-0.9	?	1.4	2%
Cc1cc(C)c(S(C)(=O)=O)c(Sc2ccc(Cl)cc2)n1
    2	11	-1.2	-4.8	-9	1.4	-3%
Cc1oc(C)c(C(=O)NCCCC(=O)O)c1C(=O)NCCCC(=O)O
    0	4	2.2	-0.1	1	-0.9	24%
CCOC(=O)c1c(C)[nH]c(C(=O)Nc2ccc(NC(C)=O)cc2)c1C
    11	7	1.5	-6.3	-13	-1.8	4%
N#C/C(=C(/O)c1cccs1)c1nc2ccccc2[nH]1
    16	-6	12	?	-17	-3.6	-7%
C=CCN1C(=O)C2C(C(=O)NC3CCCCC3)C3C=CC2(O3)C1C(=O)NC1CCCC1 (stereo not given)
    -3	/	4.1	0.9	1	3.4	8%
CC(=O)Nc1nc(-c2ccc3c(c2)CCN3S(C)(=O)=O)cs1
    16	12	-3.3	7.5	4	0.0	10%
CCCc1cc(=O)[nH]c(SCC(=O)c2cc(C)n(CCC)c2C)n1
    0	96*	-1.3	12	-4	-4.5	1%
O=C(O)C(=O)/C(=C\c1cccc(Cl)c1)c1ccc2ccccc2n1
    9	9	0.1	-9.4	56	0.8	0%
CCN(CC)C(=O)C1CCCN(Cc2cccc(Oc3ccccc3)c2)C1 (stereo not given)
    -15	-4	1.5	-2.3	1	-7.3	-4%
CS(=O)(=O)c1ccc(Cl)c(NC(=O)c2cc(S(=O)(=O)N3CCOCC3)ccc2N2CCCC2)c1
    -3	/	2.7	1.1	-1	/	7%
CC1(C)Cc2cccc(OCC(=O)Nc3ccc(S(N)(=O)=O)cc3)c2O1
    3	-1	0.9	2.0	7	1.8	2%
CC(C)(C)OC(=O)N1CCC[C@H]1C(=O)N/N=C/c1cccc2cccnc12
    3	2	-3.2	4.4	0	-3.9	7%

Screening data deposited in PubChem by several laboratories.

This is a random part of the collection, and some 6.3% of all compounds hit somewhere here.
